From PubChem
Yeast UUG start: modulators of yeast start codon fidelity, primary screen, whole organism, S. cerevisiae, single point, plate reader | S. cerevisiae UUG-firefly luciferase reporter, luminescence/redox ratio | activity score, % at 18.7 µM | 350,000 compounds, 0.13% hits;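 active = replicate mean at a twofold rise or more, about +100% in these data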;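 note: firefly luciferase made from a UUG start codon reports start codon fidelity; reporter light over untreated wells divided by growth signal over untreated wells; some hits fall short of that in this replicate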
* marks the source's active call; other numbers are inactive results; & = joins results of further samples.

Yeast UUG start,SMILES
-19,CO[C@H]1CN(C)C(=O)c2cc(NC(=O)Nc3ccc4c(c3)OCO4)ccc2OC[C@@H](C)NC[C@H]1C
-4,COCC(=O)N1CCCCN2[C@@H](CO)[C@H](c3ccc(C#Cc4cccnc4)cc3)[C@@H]2C1
-3,C[C@@H]1CN([C@H](C)CO)C(=O)c2cccc(NC(=O)Nc3ccccc3)c2O[C@H]1CN(C)Cc1ccc2c(c1)OCO2
2,CC(C)NC(=O)Nc1ccc2c(c1)C(=O)N([C@@H](C)CO)C[C@@H](C)[C@@H](CN(C)Cc1ccc(C(F)(F)F)cc1)O2
-19,OC[C@@H]1[C@H](c2ccc(/C=C/c3ccccc3)cc2)[C@@H]2CN(Cc3cccnc3)CCCCN12
16,Cn1cnc(S(=O)(=O)N2CCCCN3[C@H](CO)[C@@H](c4ccc(C#CC5CC5)cc4)[C@@H]3C2)c1
3,C[C@H]1CN([C@@H](C)CO)C(=O)c2cccc(NC(=O)C3CCCCC3)c2O[C@H]1CN(C)C(=O)Nc1ccc(C(F)(F)F)cc1
1,C[C@@H]1CN([C@H](C)CO)C(=O)c2cccc(NC(=O)c3cnccn3)c2O[C@H]1CN(C)C(=O)Nc1ccccc1
-3,CO[C@H]1CN(C)C(=O)c2cc(NC(=O)Nc3c(C)noc3C)ccc2OC[C@@H](C)N(CC2CC2)C[C@H]1C
35,CC=Cc1ccc2n(c1=O)C[C@H]1[C@H](CO)[C@@H](C(=O)NCC(F)(F)F)[C@@H]2N1C(=O)C1CCC1 (mixture of isomers)
10,CN1C(=O)c2cc(NS(=O)(=O)c3ccc(Cl)cc3)ccc2OC[C@@H]2O[C@H](CC(=O)O)CC[C@@H]21
-14,C[C@@H]1CN([C@H](C)CO)C(=O)c2cc(NS(=O)(=O)c3cn(C)cn3)ccc2O[C@H]1CN(C)Cc1ccc(Cl)c(Cl)c1
-1,CCNC[C@@H]1[C@@H](c2ccccc2)[C@@H](CO)N1C(=O)Cc1ccccn1
-13,CCC(=O)N1CCCCN2[C@H](CO)[C@H](c3ccc(-c4cccnc4)cc3)[C@@H]2C1
11,C[C@@H]1CN([C@H](C)CO)C(=O)Cc2cc(NC(=O)CCC(F)(F)F)ccc2O[C@H]1CN(C)C
3,CC(C)NC(=O)N1[C@@H]2CNc3ccccc3[C@@H]2[C@@H]1CO
3,C[C@H](CO)N1C[C@H](C)[C@@H](CN(C)S(=O)(=O)c2ccc(F)cc2)Oc2ccc(N(C)C)cc2C1=O
11,COc1ccc(S(=O)(=O)N(C)C[C@@H]2Oc3c(NC(=O)c4cc(C)nn4C)cccc3C(=O)N([C@H](C)CO)C[C@H]2C)cc1
4,CN1CCN(C(=O)C[C@@H]2CC[C@H]3[C@@H](COC[C@@H](O)CN3C(=O)Nc3ccc(Cl)cc3)O2)CC1
-13,O=C(C[C@H]1CC[C@@H]2[C@H](COC[C@@H](O)CN2Cc2cc(F)cc(F)c2)O1)NCc1cccc(F)c1
-6,C[C@@H]1CN([C@@H](C)CO)C(=O)CCCn2cc(nn2)CO[C@@H]1CN(C)C(=O)Nc1ccc(F)cc1
4,O=C(c1ccc2c(c1)OCO2)N1C[C@H]2[C@@H](c3ccccc31)[C@H](CO)N2Cc1cccnc1
7,COc1cccc(C(=O)Nc2ccc3c(c2)C(=O)N(C)C[C@@H](OC)[C@H](C)CN(C)[C@@H](C)CO3)c1
24,CN1c2ccc(Br)cc2[C@@H]2[C@@H](CCN2C(=O)Cc2cccnc2)[C@@H]1CO
4,O=C(CN1CCOCC1)N1CCCCN2[C@@H](CO)[C@@H](c3ccc(/C=C/c4ccccc4)cc3)[C@@H]2C1

More entries follow.
Yeast UUG start,SMILES
16,COc1ccc(S(=O)(=O)Nc2cccc3c2O[C@H](CN(C)C(=O)Nc2ccc(F)cc2)[C@H](C)CN([C@H](C)CO)C3=O)cc1
9,O=C(C[C@H]1CC[C@H]2[C@@H](COC[C@@H](O)CN2Cc2cccc(C(F)(F)F)c2)O1)NCc1ccncc1
2,CN(C[C@H]1N[C@H](CO)[C@H]1c1ccc(C2=CCCC2)cc1)S(C)(=O)=O
-4,CCS(=O)(=O)Nc1ccc2c(c1)C(=O)N(C)[C@@H]1CC[C@@H](CC(=O)NCc3ccc(OC)cc3)O[C@H]1CO2
-16,CN(C)C(=O)C[C@@H]1CC[C@@H]2[C@H](COC[C@H](O)CN2CC2CCOCC2)O1
-10,CO[C@@H]1CN(C)C(=O)c2cc(NC(=O)C3CCCC3)ccc2OC[C@@H](C)NC[C@H]1C
0,Cc1ccc(S(=O)(=O)Nc2ccc3c(c2)CC(=O)N([C@@H](C)CO)C[C@@H](C)[C@H](CN(C)CC2CC2)O3)cc1
9,COc1ccc(CN2[C@H](CO)[C@H]3c4ccccc4N(C(=O)NC(C)C)C[C@H]32)cc1
5,O=C(c1ccccc1F)N1CC[C@@H]2[C@H](CO)Nc3ccc(C#Cc4ccccc4F)cc3[C@@H]21
-16,CC(C)NC(=O)N(C)C[C@H]1Oc2c(NC(=O)c3ccncc3)cccc2C(=O)N([C@@H](C)CO)C[C@@H]1C
-10,O=C(C1CCC1)N1CC[C@H]2[C@H](CO)Nc3ccc(C#Cc4cccc(F)c4)cc3[C@H]21
0,CCCNC(=O)N1[C@H](CO)[C@H](c2ccccc2)[C@H]1CNC(=O)c1cccc(F)c1
18,C[C@H](NC(=O)C[C@H]1CC[C@H]2[C@@H](COc3ccc(NC(=O)C4CCOCC4)cc3C(=O)N2C)O1)c1ccccc1
-6,COCC(=O)Nc1ccc2c(c1)C(=O)N(C)C[C@H](OC)[C@@H](C)CN(Cc1ccccc1F)[C@H](C)CO2
-2,COc1ccc(S(=O)(=O)N2CCCCN3[C@H](C2)[C@@H](c2ccc(C#CCC(C)C)cc2)[C@@H]3CO)cc1
-2,O=S(=O)(c1ccccc1F)N1CC[C@@H]2[C@@H](CO)Nc3ccc(C4=CCCCC4)cc3[C@@H]21
-4,C[C@@H]1CN([C@@H](C)CO)C(=O)c2cccc(NS(=O)(=O)c3cn(C)cn3)c2O[C@H]1CN(C)C(=O)NC1CCCCC1
-5,COc1ccc(CNC(=O)C[C@@H]2C[C@@H]3c4cc(NS(C)(=O)=O)ccc4O[C@@H]3[C@@H](CO)O2)cc1
0,C[C@@H]1CN([C@@H](C)CO)C(=O)c2cc(NC(=O)c3ccncc3)ccc2O[C@@H]1CN(C)C(=O)Nc1ccc2c(c1)OCO2
-6,COC(=O)C[C@@H]1CC[C@@H]2[C@H](COC[C@@H](O)CN2S(=O)(=O)c2ccccc2C)O1
-11,O=C(C1CCCC1)N1CCCCN2[C@@H](CO)[C@@H](c3ccc(-c4cccc(F)c4)cc3)[C@@H]2C1
20,Cc1ccc(S(=O)(=O)N(C)C[C@H]2Oc3ccc(NC(=O)Cc4ccccc4)cc3C(=O)N([C@@H](C)CO)C[C@@H]2C)cc1
4,C[C@H](CO)N1C[C@H](C)[C@@H](CN(C)Cc2ccc(C(=O)O)cc2)Oc2ccc(NC(=O)Nc3ccc4c(c3)OCO4)cc2C1=O
-5,O=C(C[C@H]1CC[C@H]2[C@@H](COC[C@H](O)CN2C(=O)c2cnccn2)O1)NCc1ccc(Cl)cc1
0,CNC[C@H]1Oc2ccc(NC(=O)Nc3ccc(F)cc3)cc2C(=O)N([C@H](C)CO)C[C@H]1C

New compounds follow.
Yeast UUG start,SMILES
26,CC(C)NC(=O)Nc1ccc2c(c1)CC(=O)N([C@@H](C)CO)C[C@@H](C)[C@@H](CN(C)Cc1ccc(C(F)(F)F)cc1)O2
-3,Cc1ccccc1S(=O)(=O)N1C[C@H](O)COC[C@H]2O[C@@H](CC(=O)N3CCCCC3)CC[C@@H]21
-33,CCN1[C@@H]2c3ccc(C4=CCCC4)c(=O)n3C[C@H]1[C@H](CO)[C@H]2C(=O)NCc1ccccn1
6,COc1ccc(CN(C)C[C@@H]2Oc3ccc(NS(=O)(=O)c4ccc(Cl)cc4)cc3CC(=O)N([C@@H](C)CO)C[C@@H]2C)cc1
7,C[C@@H]1CN([C@H](C)CO)C(=O)c2cccc(NS(=O)(=O)c3cn(C)cn3)c2O[C@H]1CN(C)C
-12,CC(C)NC(=O)Nc1ccc2c(c1)C(=O)N([C@@H](C)CO)C[C@@H](C)[C@@H](CN(C)Cc1ccc3c(c1)OCO3)O2
-7,CO[C@@H]1CN(C)C(=O)c2cc(NC(=O)Nc3ccc(F)cc3)ccc2OC[C@H](C)NC[C@H]1C
-15,CN(C)C(=O)c1cccc(-c2ccc([C@@H]3[C@@H](CO)N4CCCCN(Cc5cccnc5)C[C@@H]34)cc2)c1
2,OC[C@H]1[C@@H](c2ccc(C#CC3(O)CCCC3)cc2)[C@H]2CN(Cc3cncnc3)CCCCN21
0,O=C(C1CCOCC1)N1C[C@H]2[C@@H](c3ccccc31)[C@@H](CO)N2C(=O)Nc1ccccc1F
3,CCCNC(=O)N1[C@H](CNC(C)=O)[C@@H](c2ccc(-c3ccccc3)cc2)[C@@H]1CO
18,COCC#Cc1ccc([C@H]2[C@H]3CN(C(=O)CN(C)C)CCCCN3[C@H]2CO)cc1
-4,CCC(=O)N1[C@H](CO)[C@H](c2ccc(-c3ccc(F)cc3)cc2)[C@@H]1CNC(C)=O
13,C[C@H](CO)N1C[C@H](C)[C@H](CN(C)S(=O)(=O)c2ccc(F)cc2)Oc2c(NC(=O)Nc3ccccc3)cccc2C1=O
11,C[C@@H](O)C#Cc1ccc([C@H]2[C@H](CO)N3CCCCN(C(=O)c4ccc(F)cc4)C[C@@H]23)cc1
-6,CCCNC(=O)NC[C@H]1[C@H](c2ccc(C3=CCCC3)cc2)[C@@H](CO)N1C(=O)CC
-6,C[C@H](CO)N1C[C@H](C)[C@H](CN(C)S(=O)(=O)c2cccs2)Oc2ccc(NC(=O)c3ccncc3)cc2C1=O
-3,CCCC(=O)Nc1ccc2c(c1)OC[C@@H](C)N(Cc1cccc(F)c1)C[C@@H](C)[C@H](OC)CN(C)C2=O
19,C[C@H](NC(=O)C[C@@H]1CC[C@@H]2[C@H](COC[C@H](O)CN2C(=O)Nc2cccc(F)c2)O1)c1ccccc1
-6,CN1c2ccc(C#Cc3cccnc3)cc2[C@H]2[C@H](CCN2C(=O)Nc2cc(F)ccc2F)[C@@H]1CO
-14,COc1ccc(NC(=O)N2C[C@@H]3[C@H](c4ccccc42)[C@H](CO)N3Cc2ccccn2)cc1
-13,Cn1cnc(S(=O)(=O)N2CCCCN3[C@H](CO)[C@@H](c4ccc(-c5cccc(F)c5)cc4)[C@H]3C2)c1
16,CN1[C@@H]2Cn3c(ccc(-c4ccccc4)c3=O)[C@H]1[C@@H](C(=O)N1CCC(Cc3ccccc3)CC1)[C@@H]2CO
-16,CN1C[C@H]2[C@@H](c3ccccc31)[C@H](CO)N2C(=O)C1CC1
-29,COc1ccc(S(=O)(=O)N2CC[C@@H]3[C@H](CO)Nc4ccc(-c5ccc(C#N)cc5)cc4[C@@H]32)cc1

Ordered by molecular weight (rising): some entries from above
Yeast UUG start,SMILES
-16,CN1C[C@H]2[C@@H](c3ccccc31)[C@H](CO)N2C(=O)C1CC1
3,CCCNC(=O)N1[C@H](CNC(C)=O)[C@@H](c2ccc(-c3ccccc3)cc2)[C@@H]1CO
-14,COc1ccc(NC(=O)N2C[C@@H]3[C@H](c4ccccc42)[C@H](CO)N3Cc2ccccn2)cc1
0,O=C(C1CCOCC1)N1C[C@H]2[C@@H](c3ccccc31)[C@@H](CO)N2C(=O)Nc1ccccc1F
7,C[C@@H]1CN([C@H](C)CO)C(=O)c2cccc(NS(=O)(=O)c3cn(C)cn3)c2O[C@H]1CN(C)C
-3,Cc1ccccc1S(=O)(=O)N1C[C@H](O)COC[C@H]2O[C@@H](CC(=O)N3CCCCC3)CC[C@@H]21
-29,COc1ccc(S(=O)(=O)N2CC[C@@H]3[C@H](CO)Nc4ccc(-c5ccc(C#N)cc5)cc4[C@@H]32)cc1
19,C[C@H](NC(=O)C[C@@H]1CC[C@@H]2[C@H](COC[C@H](O)CN2C(=O)Nc2cccc(F)c2)O1)c1ccccc1
16,CN1[C@@H]2Cn3c(ccc(-c4ccccc4)c3=O)[C@H]1[C@@H](C(=O)N1CCC(Cc3ccccc3)CC1)[C@@H]2CO
-12,CC(C)NC(=O)Nc1ccc2c(c1)C(=O)N([C@@H](C)CO)C[C@@H](C)[C@@H](CN(C)Cc1ccc3c(c1)OCO3)O2
-6,C[C@H](CO)N1C[C@H](C)[C@H](CN(C)S(=O)(=O)c2cccs2)Oc2ccc(NC(=O)c3ccncc3)cc2C1=O

Continuation:
Yeast UUG start,SMILES
11,Cn1cnc(S(=O)(=O)N2CC[C@@H]3[C@@H](CO)Nc4ccc(-c5cccc(F)c5)cc4[C@@H]32)c1
23,O=C(c1cccc(F)c1)N1CCCCN2[C@H](CO)[C@H](c3ccc(C#CC4(O)CCCC4)cc3)[C@@H]2C1
21,COc1ccc(C#Cc2ccc([C@@H]3[C@@H](CO)N4CCCCN(S(=O)(=O)c5ccccc5)C[C@@H]34)cc2)cc1
11,O=C(C[C@H]1CC[C@@H]2[C@H](COC[C@@H](O)CN2C(=O)c2ccccc2F)O1)NCc1ccc(F)cc1
-8,COc1ccc(CN(C)C[C@H]2Oc3c(NS(=O)(=O)c4cn(C)cn4)cccc3C(=O)N([C@@H](C)CO)C[C@H]2C)cc1
-13&-6,CCCN(C[C@H]1N[C@H](CO)[C@@H]1c1ccc(-c2cccnc2)cc1)C(C)=O
-3,CCC(=O)N1CCCCN2[C@H](CO)[C@@H](c3ccc(-c4cccc(C#N)c4)cc3)[C@@H]2C1
-8,COc1ccc(-c2ccc3c(c2)[C@@H]2[C@@H](CCN2C(=O)c2cccc(F)c2)[C@H](CO)N3)cc1
-7,O=C(CC(F)(F)F)N1C[C@H]2[C@@H](c3ccccc31)[C@H](CO)N2C(=O)Cc1ccccc1
4,O=C(C[C@H]1CC[C@@H]2[C@H](COC[C@@H](O)CN2Cc2nccs2)O1)NCc1ccc(-c2ccccc2)cc1
10,CCCNC(=O)Nc1ccc2c(c1)OC[C@H](C)N(C(=O)C1CCC1)C[C@@H](C)[C@@H](OC)CN(C)C2=O
2,CCC(=O)N1CCCCN2[C@H](CO)[C@H](c3ccc(/C=C/c4ccccc4)cc3)[C@@H]2C1
10,C[C@H]1CN([C@@H](C)CO)C(=O)CCCn2cc(nn2)CO[C@H]1CN(C)CC1CCCC1

This is a subset, so the mix of outcomes need not match the whole.
